# miR-21 FLuc = miR-21 reporter, rising signal; HeLa miR-21 FLuc reporter, luciferase, 48 h; Potency, µM (doses to about 38.3 µM), for inactives: top-dose reporter change, positive = more light; 340,000 tested, under 10 active; AID 2288; active = well fitted rising curve with a large enough effect; inconclusive = small, poorly fitted or top-dose-only effect; inactive = no such curve, though single readings can be large or run the other way;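 also: % of control where 0% means no effect; miR-21 action dims this reporter so a rising signal means less miR-21 action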
#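 HeLa cells stably expressing CMV-driven firefly luciferase with a downstream miR-21 binding sequence, endogenously expressing miR-21, were treated with titrations (up to about 40uM final) for 48 hours at 37 degree Celsius. Luciferase luminescence was read after lysis.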
# Rango dissoc inh = prevents RanGTP from dissociating the Rango-importin beta complex. O95149+P62826. Biochemical FRET Rango-importin beta, RanGTP-induced dissociation. Potency, µM (doses to about 46.1 µM), without a hit: top-dose activity change, negative = inhibition. 0.071% of 340,000 active; active means falling FRET ratio curve, often poorly fitted, with flat reads before Ran was added; inconclusive means other falling curves, or compound fluorescence or quenching; inactive means flat or rising ratio curve;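 also: potency is read from the fitted curve at half-maximal effect; % of control where 0% means no effect; nearly all actives have a fitted effect of over 45% in size; -100% = wells without RanGTP and RCC1; the record marks most hits as doubtful in a second field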
#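 FRET read at 45 min, room temperature: inhibitors block the CFP/YFP signal rise when RanGTP (0.6 uM Ran, 2 mM GTP, 0.2 uM RCC1) frees Rango (0.1 uM) from importin beta (0.25 uM). Pre-read after 5 min compound exposure flags interference.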
# GLA inh pH 4.5 = blocks human alpha-galactosidase A at pH 4.5 | purified enzyme, 4-MU-alpha-Gal fluorescence, pH 4.5 | activity change, negative = inhibition, % at 105 µM | 230,000 tested, under 10 active; inconclusive = small, poorly fitted or top-dose-only inhibition, or a rising curve; inactive = flat fitted curve, though single readings scatter; no compound was filed as active;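 also: 0% = full activity with enzyme and -100% = basal without enzyme; dose as in the result columns while the protocol names 77 µM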
# Target sequence (P06280 whole entry, looked up): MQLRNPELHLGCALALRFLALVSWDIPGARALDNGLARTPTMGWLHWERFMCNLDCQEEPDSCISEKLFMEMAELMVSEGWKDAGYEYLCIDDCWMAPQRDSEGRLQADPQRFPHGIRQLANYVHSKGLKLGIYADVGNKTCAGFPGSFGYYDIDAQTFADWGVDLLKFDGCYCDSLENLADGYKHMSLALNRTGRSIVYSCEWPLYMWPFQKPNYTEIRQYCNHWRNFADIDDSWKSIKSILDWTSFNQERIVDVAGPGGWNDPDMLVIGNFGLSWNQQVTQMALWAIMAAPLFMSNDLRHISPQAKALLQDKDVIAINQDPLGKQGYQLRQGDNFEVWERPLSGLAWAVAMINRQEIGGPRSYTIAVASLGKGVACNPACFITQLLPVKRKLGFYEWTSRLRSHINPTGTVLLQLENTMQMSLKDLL
# Rango-impB inh = Rango-importin beta binding inhibition. Rango CFP/YFP FRET sensor + importin beta, 45 min. 0.031% of 340,000 active. Potency, µM (titrated, usually from 92.2 µM), for inactives: at the highest dose inhibition of complex formation. AID 540263; active = rising FRET ratio curve, often small or poorly fitted; inconclusive = mostly compound fluorescence or quenching in the first reads; inactive = flat curves in all reads;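 also: potency is read from the fitted curve at half-maximal effect; 0% = DMSO wells and 100% = buffer wells lacking importin beta; nearly all actives have a fitted effect of over 15% in size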
#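 FRET biosensor Rango (snurportin 1 IBB between N-terminal EYFP and C-terminal Cerulean), 50 nM in PBS/1 mM DTT/0.02% Tween-20/0.1% BSA, preincubated 5 min RT with compound; 0.125 microM importin beta added, 45 min RT, CFP/YFP FRET ratio read.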
# Numbers without * were called inactive; u = inconclusive; x = not tested or not shown; & = joins results of further samples. An excerpt (hit frequency here may not be typical).
SMILES,miR-21 FLuc,Rango dissoc inh,GLA inh pH 4.5,Rango-impB inh
Nc1cc(S(=O)(=O)N2CCOCC2)ccc1N1CCOCC1,x,-3%,x,0.4%
Cc1ccc(-c2noc(C3CCCN(C(=O)c4cccc([N+](=O)[O-])c4)C3)n2)o1 (stereo unspecified),-33%,9%,x,0.1%
CCCCC(CC)CNC(=O)c1[nH]c(C)c(C(C)=O)c1C (stereo unspecified),9%,-1%,3,-0.7%
Cc1ccc(NC(=O)C2CC(=O)N(Cc3ccco3)C2)cc1 (stereo unspecified),-3%,7%,0,0.1%
Cn1c(NC(=O)C[n+]2cc(-c3ccc(Cl)c(Cl)c3)n3c2CCC3)cc(=O)n(C)c1=O,-1%,-14%,-5,1.8%
CC(=O)Nc1sc2c(c1C(c1cccc(Cl)c1)N1CCN(CCO)CC1)CCCC2 (stereo unspecified),23%,-8%,-10,-2.8%
Cc1ccccc1C(=O)c1cccn1CC(=O)NCCCN1CCc2ccccc2C1,10%,10%,7,-2.5%
COC(=O)c1cc(S(=O)(=O)NCC2CCN(Cc3cccc(F)c3)CC2)cn1C,-6%&5%,-12%,x,-1.6%
CCOC(=O)C(C)Oc1cc(Cl)c(C=O)cc1OC (stereo unspecified),0%,-2%,2,0.4%
CCCCS(=O)(=O)NC1=NCN(CC)CN1,0%,7%,-3,2.6%
CCc1ccc(N(C(=O)c2ccco2)C(C(=O)NC2CCCC2)c2cccnc2)cc1 (stereo unspecified),-15%,6%,x,-2.3%
NC(N)=N/N=C/c1ccc(OCc2ccc(Cl)cc2Cl)cc1,u,0%,-2,2.0%
O=C(CCc1ccccc1O)NC1CCCc2ccccc21 (stereo unspecified),-6%,-16%,x,-0.5%
CCCCn1c(N)c(N(CCOC)C(=O)c2ccc(-c3ccc(Cl)cc3)o2)c(=O)[nH]c1=O,x,-15%,x,1.2%
O=C(CN1CCN(S(=O)(=O)N2CCCCC2)CC1)Nc1ccc(Br)cc1,18%,-14%,x,-1.2%

# The list goes on, starting with the last 5 of the part before.
SMILES,miR-21 FLuc,Rango dissoc inh,GLA inh pH 4.5,Rango-impB inh
CCc1ccc(N(C(=O)c2ccco2)C(C(=O)NC2CCCC2)c2cccnc2)cc1 (stereo unspecified),-15%,6%,x,-2.3%
NC(N)=N/N=C/c1ccc(OCc2ccc(Cl)cc2Cl)cc1,u,0%,-2,2.0%
O=C(CCc1ccccc1O)NC1CCCc2ccccc21 (stereo unspecified),-6%,-16%,x,-0.5%
CCCCn1c(N)c(N(CCOC)C(=O)c2ccc(-c3ccc(Cl)cc3)o2)c(=O)[nH]c1=O,x,-15%,x,1.2%
O=C(CN1CCN(S(=O)(=O)N2CCCCC2)CC1)Nc1ccc(Br)cc1,18%,-14%,x,-1.2%
O=C(Nc1c(C(=O)Nc2cccc(F)c2)oc2ccccc12)c1ccc2c(c1)OCO2,-16%,0%,2,0.7%
CC(=O)Oc1c(Br)cc(N(C(C)=O)S(=O)(=O)c2ccccc2)c2ccccc12,27%,-2%,x,3.8%
CCC(=O)N1CCc2cc(Br)cc(S(=O)(=O)N(C)c3ccc(OC)cc3)c21,11%,16%,x,-2.6%
CC1(C)OC(=O)C(=CNCC(O)c2ccccc2)C(=O)O1 (stereo unspecified),-4%,3%,-4,2.1%
CCOc1ccc(NC(=S)Nc2ccc(OC(F)(F)F)cc2)cc1,-2%,4%,2,3.5%
Cc1cccc(C)c1-c1ccc(CN2C(CC(C)C)C(=O)N(Cc3cn(CCO)nn3)CCS2(=O)=O)cc1 (stereo unspecified),x,6%,x,3.6%
COC(=O)COc1cc(OCC(=O)OC)c2c(-c3ccccc3)cc(=O)oc2c1,-3%,-7%,x,0.5%
COc1ccc(Oc2coc3c(CN(C)C)c(O)ccc3c2=O)cc1,-3%,-14%,-5,0.3%
Cc1csc(NC(=O)Cc2c[nH]c3ccccc23)n1,-36%,1%,-14,0.1%
Cn1nnc(NC(=O)COc2ccc(C3CCCCC3)cc2)n1,-3%,11%,0,0.9%
CC(=O)NC(=S)Nc1cccc2ccc(C)nc12,0%,-5%,-8,0.2%
COc1c(C)cccc1C(=O)Nc1cc(Cl)ccc1N1CCOCC1,-2%,-9%,-6,-0.7%
CC(C)(C)C(=O)Nc1ccccc1N1CCN(c2ccc(F)cc2)CC1,1%,-4%,x,1.4%
CC1CCc2c(sc3nc(C4CC4)nc(N4CCN(C(=O)c5ccco5)CC4)c23)C1 (stereo unspecified),x,0%,x,2.6%
Cc1c(NC(=O)C(C)Oc2ccc(Br)cc2Cl)c(=O)n(-c2ccccc2)n1C (stereo unspecified),x,17%,x,5.1%
COc1ccc(CNC(=O)c2ccc(C(C)(C)C)cc2)cc1,-61%,-9%,-12,2.3%
Cc1cc(=O)oc2cc(OCC(=O)N3c4ccccc4NC(=O)C3(C)C)ccc12,x,-17%,x,0.6%
CCNC(=O)NC(=O)C(C)OC(=O)c1cc(S(=O)(=O)N2CCCCCC2)ccc1OC (stereo unspecified),2%,10%,8,-6.0%
O=C(Cn1c(=O)n(Cc2ccccc2)c(=O)c2ccccc21)NCc1ccco1,-9%,10%,-4,-2.2%
CCCCC1(COC(=O)CCC(=O)O)C(=O)N(c2ccccc2)N(c2ccccc2)C1=O,x,1%,3&0,-0.4%
CC(C)CNC(=O)C1(N2C(=O)c3ccccc3C2=O)CCCC1,x,-11%,x,2.2%
COc1ccc(/C=C2\N=C(c3ccccc3Cl)NC2=O)cc1,1%,-25%,-14,u
COC(=O)c1cccc(C(=O)N2CCC(CO)(Cc3ccccc3Cl)CC2)c1,9%,14%,1,2.3%
CCn1nc(C)c(CNC(=O)Nc2ccccc2C(=O)OC)c1C,11%,16%,-5,1.2%
C/C(=N\Nc1ccc(Cl)cc1)c1c(O)cc(C)oc1=O,-10%,-8%,-2,0.1%
Cc1c(CCC(=O)NCCCn2ccnc2)c(=O)oc2cc3oc4c(c3cc12)CCCC4,13%,23%,x,3.6%
O=C(NC1C2CCCC1CN(C1CC1)C2)c1ccc(Cl)cc1 (stereo unspecified),-1%,2%,x,-0.9%
CC(=O)N1CCN(S(=O)(=O)c2ccc(C)c([N+](=O)[O-])c2)C1C(C)C (stereo unspecified),-1%,18%,-3,0.3%
Cc1ccc2c(c1)N(C(=O)CCC(=O)NCc1cccnc1)CC(C)O2 (stereo unspecified),1%,-10%,x,0.1%
CCC[C@@H]1CCCO[C@@](C(=O)NCc2cc(C)n(C)n2)(C(F)(F)F)C1,x,10%,x,0.6%

# Retrieved by compound from above, two records:
SMILES,miR-21 FLuc,Rango dissoc inh,GLA inh pH 4.5,Rango-impB inh
CC(C)CNC(=O)C1(N2C(=O)c3ccccc3C2=O)CCCC1,x,-11%,x,2.2%
Cc1ccc2c(c1)N(C(=O)CCC(=O)NCc1cccnc1)CC(C)O2 (stereo unspecified),1%,-10%,x,0.1%

# (further entries)
SMILES,miR-21 FLuc,Rango dissoc inh,GLA inh pH 4.5,Rango-impB inh
CC1CC(C)(C)NC(=S)N1CCC(=O)Nc1ccc2c(c1)OCCO2 (stereo unspecified),-1%,-14%,-1,3.5%
COC(=O)c1ccc(CO/N=C(\NC(C)=O)c2nonc2NC(C)=O)cc1,-9%,1%,5,-1.9%
O=[N+]([O-])C1=CC=C2C(=NC3(CCCCC3)N2O)C1=NCCc1ccccc1,-14%,0%,3,u
S=C(NCC1CCCCC1)Nc1ccc(Oc2ccccc2)cc1,u,-3%,-4,-1.8%
CC(C)=CCN1CCN(Cc2cccc3nccnc23)CC1CCO (stereo unspecified),0%,-10%,3,-0.4%
COc1ccc(/C=N/NC(=O)CN2CCCCCCC2)c(C)c1C,-3%,26%,-1,-1.6%
COc1cccc(N2CCN(c3c4c(nc5ncnn35)CCC4)CC2)c1,12%,4%,0,0.4%
CCC(C)NS(=O)(=O)c1ccc(S(=O)(=O)N2CC=C(c3ccc(F)cc3)CC2)cc1 (stereo unspecified),23%,0%,-3,2.8%
O=C(N/N=C/c1ccc2nccnc2c1)c1ccncc1,-2%,7%,5,0.7%
COc1ccc(N(CC(=O)N2CCN(Cc3ccccc3)CC2)S(=O)(=O)c2ccccc2)cc1,1%,32%,x,-5.3%
O=C1NC(=NCc2ccccc2)S/C1=C/c1ccc(O)cc1,24%,u,1,u
C#CCN(Cc1ccco1)C(=O)c1cc(COc2ccc(F)cc2Cl)on1,10%,-2%,0,-0.2%
O=C(NCCc1ccccc1)C(c1ccccc1F)N(C(=O)c1csnn1)C1CC1 (stereo unspecified),0%,-1%,x,-3.5%
CCCCCCCCCCCCCC(=O)NO,x,6%,x,3.1%
Cn1cccc1/C=N/N1CCN(Cc2ccc(Cl)cc2)CC1,15%,-4%,-8,2.5%
Cc1ccc2nsnc2c1NC(=O)CCl,11%,2%,-19,3.2%
O=C(O)c1ccc(N2CCS(=O)(=O)CC2)cc1,1%,3%,-3,3.0%
COC(=O)C(C(=O)OC)N1C(=O)CCC1=O,-7%,-15%,1,-2.9%
COC(=O)c1cc(S(=O)(=O)Nc2cccc(S(N)(=O)=O)c2)oc1C,-3%,2%,-1,-0.7%
CC(C)(C)NC(=O)Nc1nnc(SCC(=O)NC2CCCCC2)s1,x,-4%,x,0.3%
O=c1[nH]c2ccccc2cc1CN(Cc1ccco1)S(=O)(=O)c1ccccc1,11%,-12%,x,2.4%
O=C(NCCCNc1ccnc2cc(Cl)ccc12)c1ccccc1F,13%,-9%,x,0.3%
C(=C\c1ccccc1)/CN1CCN(Cc2ccc3c(c2)OCCO3)CC1,-4%,x,-12,x
CCCCC(=O)Nc1ccc2c(c1)OCCO2,-45%,-6%,10,-0.2%
Cc1ccn2cc(CCNC(=O)c3ccc(Br)o3)nc2c1,-11%,-11%,-4,3.6%
Cc1oc(C)c(C(N)=O)c1C(N)=O,-1%,4%,1,0.3%
CN(C)CCCNC(=S)NCCNc1nc2cc3c(cc2cc1C#N)OCO3,-11%,7%,16,-2.6%
O=C(CN1CCN(Cc2ccc(F)cc2)CC1)Nc1ccccc1F,-3%,14%,x,9.1%
Cc1cc(C)nc(N/N=C/c2cc(Br)ccc2O)n1,-21%,2%,1,0.5%
O=C(c1ccc([N+](=O)[O-])c(CS(=O)(=O)c2ccc(Cl)cc2)c1)N1CCCC1,3%,-10%,-2,-0.8%
COc1ccc(/C=C/C(=O)NC(C)CCc2ccccc2)cc1 (stereo unspecified),-9%,4%,0,-1.5%
O=S(=O)(/C=C/c1ccccc1)Nc1ccc(F)cc1,-1%,14%,-15,-4.0%
CC(=O)c1ccc(Nc2c(C)n(C)n(-c3ccccc3)c2=O)cc1,0%,-12%,10,0.8%
CCOC(=O)C(=CNc1cc(OC)ccc1-n1cccc1)C(=O)OCC,3%,3%,1,-1.3%
Cc1ccn2c(=O)nc(SCC(=O)N3CCCCC3)nc2c1,x,-7%,x,u
Cc1cccc(N/C=C/c2onc(C)c2[N+](=O)[O-])c1,-56%,-20%,2,u
COC(C/C=C\[C@@H](O)[C@@H](C)OCc1ccccc1)OC,x,5%,x,2.9%
COC(=O)c1cccn(CC(=O)c2ccc(Cl)cc2Cl)c1=O,-9%,47%,3,0.6%
CC1(C)CC(NC(=O)c2cccc(S(=O)(=O)N(Cc3ccccc3)c3ccccc3)c2)CC(C)(C)N1,x,-3%,x,-0.7%
CCCNC(=O)CSc1ccc(S(=O)(=O)N2CCCC2)cn1,x,17%,x,-0.2%
CCOc1ccc(CCNC(=O)COC(=O)c2ccc(S(C)(=O)=O)cc2)cc1OCC,x,-2%,x,0.6%
CCc1nnc(NCn2nc(C)cc2C)s1,0%,4%,6,-1.0%
O=C(CN1C(=O)COc2ccc(Cl)cc21)Nc1ccc2c(c1)OCCO2,0%,18%,-15,0.4%
CSc1nnc(N2C(=O)C(O)=C(C(=O)c3ccco3)C2c2ccccc2F)s1 (stereo unspecified),-14%,u,x,u
Cc1nn(Cc2ccccc2Cl)c(C)c1C(=O)NCc1ccco1,-13%,-3%,-5,-0.8%
CCCCOc1ccccc1NC(=O)CC1Nc2ccccc2NC1=O (stereo unspecified),u,u,-3,u
COc1cccc(C(=O)O/N=C2\CCS(=O)(=O)c3sccc32)c1,1%,-5%,-5,0.2%
COc1ccc(C2=NOC(COc3ccc4c(C)cc(=O)oc4c3)C2)c(OC)c1 (stereo unspecified),13%,-1%,-9,4.6%

# Source: PubChem BioAssay
